Compound activity (PubChem BioAssay)
NCOA1 inh: inhibitors of human steroid receptor coactivator 1 (SRC1); Q15788; HEK293 GAL4-SRC1 luciferase reporter, luminescence; inhibition, % at 3.6 µM; hit rate 0.12% among 360,000; AID 588354;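 active = inhibition above the campaign mean plus 3 SD, with each screening campaign given its own cutoff, cut at about 60% in these data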;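 note: 0% = DMSO treated cells and 100% = gossypol at 36 µM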
TROY NFkB inh: TROY signaling inhibition; inhibition, % at 10 µM; Q293 LMP1-TROYcd NF-kB luciferase reporter, 4 h; hit rate 0.98% among 360,000;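 active = compounds whose plate-normalised and pattern-corrected inhibition of the luciferase reporter signal at the single screening dose is 50% or more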
TLR9-MyD88 block: blocks human TLR9 binding to MyD88; inhibition, % at 4.98 µM; hit rate 0.21% among 340,000; Q9NR96+Q99836; CHO BLA complementation TLR9-MyD88, CCF4 FRET ratio;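 active = inhibition above the mean over all tested compounds plus 3 SD, cut at about 21% in these data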;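 note: 0% = DMSO only wells and 100% = clavulanate BLA inhibitor control wells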
NOD2-RIPK2 inh: NOD2-RIPK2 protein interaction inhibition; CHO BLA complementation NOD2-RIPK2, CCF4 ratio; inhibition, % at 4.98 µM; hit rate 0.38% among 360,000; AID 624267; O43353; in the data active = inhibition above about 21%;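 note: 0% = vehicle only and 100% = reference blocker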
TWEAK-Fn14 inh: blocks TWEAK-Fn14 interaction in a reporter cell assay; TWEAK-stimulated Fn14 reporter cells, luciferase luminescence, 8 h; AID 1159606; inhibition, % at 10 µM; hit rate 2% among 360,000; in the data active = inhibition above about 50%
SRC3 inh: human NCOA3 inhibition. Q9Y6Q9. HEK293 GAL4-SRC3 luciferase reporter, luminescence. inhibition, % at 3.6 µM. hit rate 0.17% among 360,000. AID 588352;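 active = inhibition above a per-campaign cutoff, the mean of all compounds plus 3 SD, cut at about 60% in these data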;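 note: 0% = DMSO-treated cells and 100% = gossypol-treated cells at 36 µM; higher means less SRC3-driven luciferase light from the GAL4 reporter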
Target sequence (Q9Y6Q9 whole entry, looked up, the tested form may be a part): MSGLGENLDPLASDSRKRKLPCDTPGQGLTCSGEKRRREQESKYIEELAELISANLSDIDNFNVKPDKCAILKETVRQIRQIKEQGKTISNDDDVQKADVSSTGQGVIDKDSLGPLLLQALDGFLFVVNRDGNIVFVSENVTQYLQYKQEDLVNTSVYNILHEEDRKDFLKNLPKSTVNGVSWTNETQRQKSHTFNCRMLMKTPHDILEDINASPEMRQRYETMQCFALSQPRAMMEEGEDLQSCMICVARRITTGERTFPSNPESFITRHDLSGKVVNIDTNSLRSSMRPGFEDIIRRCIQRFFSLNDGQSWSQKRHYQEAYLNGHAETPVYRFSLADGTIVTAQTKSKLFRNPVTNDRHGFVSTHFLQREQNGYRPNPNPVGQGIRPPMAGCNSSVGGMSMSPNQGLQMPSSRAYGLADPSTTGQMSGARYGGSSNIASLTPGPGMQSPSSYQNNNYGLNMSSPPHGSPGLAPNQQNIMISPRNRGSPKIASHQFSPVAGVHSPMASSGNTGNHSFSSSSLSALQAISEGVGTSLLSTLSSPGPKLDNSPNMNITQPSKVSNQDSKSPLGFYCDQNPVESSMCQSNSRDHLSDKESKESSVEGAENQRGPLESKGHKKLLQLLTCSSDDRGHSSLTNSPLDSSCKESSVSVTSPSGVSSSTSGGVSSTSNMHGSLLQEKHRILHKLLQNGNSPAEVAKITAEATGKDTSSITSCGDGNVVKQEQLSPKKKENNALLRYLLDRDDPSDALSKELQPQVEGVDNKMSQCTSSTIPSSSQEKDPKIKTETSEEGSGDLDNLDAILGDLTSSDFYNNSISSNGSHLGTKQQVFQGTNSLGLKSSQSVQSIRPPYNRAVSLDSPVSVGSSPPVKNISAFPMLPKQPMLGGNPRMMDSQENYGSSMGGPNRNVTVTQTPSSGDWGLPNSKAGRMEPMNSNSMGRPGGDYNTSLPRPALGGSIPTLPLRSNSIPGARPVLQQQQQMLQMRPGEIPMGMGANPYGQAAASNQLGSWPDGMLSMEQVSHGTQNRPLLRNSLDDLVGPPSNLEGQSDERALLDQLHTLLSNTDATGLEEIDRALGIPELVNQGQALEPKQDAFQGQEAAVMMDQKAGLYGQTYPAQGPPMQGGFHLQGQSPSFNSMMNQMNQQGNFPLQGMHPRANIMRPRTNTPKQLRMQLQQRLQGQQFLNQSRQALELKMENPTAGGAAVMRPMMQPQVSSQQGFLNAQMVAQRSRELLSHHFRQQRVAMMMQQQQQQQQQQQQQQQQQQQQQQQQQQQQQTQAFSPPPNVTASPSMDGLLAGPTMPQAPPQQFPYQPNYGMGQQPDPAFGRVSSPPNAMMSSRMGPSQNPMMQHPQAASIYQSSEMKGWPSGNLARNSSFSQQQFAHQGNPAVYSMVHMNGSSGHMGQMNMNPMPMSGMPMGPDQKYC
TRAIL sens C8: sensitizes caspase-8 expressing cells to TRAIL; NB7+C8 cells + TRAIL, ATPlite viability luminescence; inhibition (viability loss, TRAIL sensitization), % at 10 µM; hit rate 1% among 360,000;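 active = compounds causing at least 50% loss of cell viability in the single-dose screen, relative to plate controls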
NR5A2 inv ag: inverse agonists of human LRH-1 (NR5A2) | HEK293T StAR-luciferase reporter, LRH-1 transfected, 24 h | inhibition, % at 3.6 µM | hit rate 0.13% among 360,000 | O00482;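 active = inhibition above the mean inhibition of all tested compounds plus 3 SD, cut at about 73% in these data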;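 note: 0% = DMSO wells and 100% = reporter-only cells lacking LRH-1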
COUP-TFII inh: blocks human COUP-TFII nuclear receptor; P24468; HEK293T NGFI-A luciferase reporter, luminescence; inhibition, % at 8.6 µM; hit rate 0.7% among 370,000; AID 686940;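 active = inhibition above a per-plate cutoff, mean inhibition of test wells between control levels plus 3 SD, cut at about 38% in these data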;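 note: cells cotransfected with COUP-TFII expression vector driving the NGFI-A reporter; 0% = median of COUP-TF2 test wells and 100% = reporter-only cells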
NCOA2 inhibitor: human SRC2 (NCOA2) inhibition; Q15596; hit rate 0.17% among 370,000; HEK293 GAL4-SRC2 luciferase reporter, luminescence; inhibition, % at 9 µM; AID 651957;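 active = inhibition above the mean inhibition of all tested compounds plus 3 SD, set per campaign, cut at about 52% in these data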;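 note: 0% = DMSO treated cells and 100% = cells given Gossypol at 36 µM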
* hit, by the source's call.

How did COCCn1c(C)cc(C(=O)COC(=O)C23CC4CC(CC(O)(C4)C2)C3)c1C do in these assays?
NCOA1 inh: -95; TROY NFkB inh: 65*; TLR9-MyD88 block: -3; NOD2-RIPK2 inh: -5; TWEAK-Fn14 inh: 76*; SRC3 inh: -38; TRAIL sens C8: 4; NR5A2 inv ag: -71; COUP-TFII inh: -24; NCOA2 inhibitor: -21

What do the screens show for `c1ccc(C2=NNC(=NC3CC3)SC2)cc1`?
NCOA1 inh: -77; TROY NFkB inh: -22; TLR9-MyD88 block: -18; NOD2-RIPK2 inh: -3; TWEAK-Fn14 inh: 63*; SRC3 inh: -60; TRAIL sens C8: 17; NR5A2 inv ag: -80; COUP-TFII inh: -27; NCOA2 inhibitor: -3

Results for C=C(C(=O)c1ccccc1)C(CC(=O)c1ccccc1)c1ccccc1 (stereo not drawn) ?
NCOA1 inh: 8; TROY NFkB inh: 11; TLR9-MyD88 block: -2; NOD2-RIPK2 inh: 4; TWEAK-Fn14 inh: 71*; SRC3 inh: 38; TRAIL sens C8: 17; NR5A2 inv ag: 14; COUP-TFII inh: -3; NCOA2 inhibitor: 24

Results for N#CC1=C(N)OC2=C(C(=O)CCC2)C12C(=O)N1CCCc3cccc2c31 (stereo not drawn) ?
NCOA1 inh: -2; TROY NFkB inh: -1; TLR9-MyD88 block: -4; NOD2-RIPK2 inh: -3; TWEAK-Fn14 inh: -1; SRC3 inh: 16; TRAIL sens C8: -8; NR5A2 inv ag: 11; COUP-TFII inh: -1; NCOA2 inhibitor: -5

How did COc1ccc(S(=O)(=O)N2CCN(CC(=O)Nc3cc(OC)cc(OC)c3)CC2)cc1 do in these assays?
NCOA1 inh: -42; TROY NFkB inh: 15; TLR9-MyD88 block: -9; NOD2-RIPK2 inh: 2; TWEAK-Fn14 inh: -12; SRC3 inh: -8; TRAIL sens C8: -5; NR5A2 inv ag: 30; COUP-TFII inh: 13; NCOA2 inhibitor: 0

What do the screens show for `CC(=O)O[C@]1(C(C)=O)CC[C@H]2[C@@H]3C=C(C)C4=CC(=O)CC[C@@H]4[C@H]3CC[C@@]21C`?
NCOA1 inh: 12; TROY NFkB inh: -2; TLR9-MyD88 block: -5; NOD2-RIPK2 inh: 9; TWEAK-Fn14 inh: -11; SRC3 inh: -16; TRAIL sens C8: 4; NR5A2 inv ag: 18; COUP-TFII inh: 2; NCOA2 inhibitor: -10

How did C/C(=N\NS(=O)(=O)c1ccc([N+](=O)[O-])cc1)c1cccs1 do in these assays?
NCOA1 inh: 14; TROY NFkB inh: -2; TLR9-MyD88 block: 9; NOD2-RIPK2 inh: -2; TWEAK-Fn14 inh: -1; SRC3 inh: 7; TRAIL sens C8: -1; NR5A2 inv ag: -2; COUP-TFII inh: -3; NCOA2 inhibitor: 11

What do the screens show for `O=C(O)c1cc(/C=C/c2ccc(N3CCOCC3)cc2)nc2ccccc12`?
NCOA1 inh: -61; TROY NFkB inh: 9; TLR9-MyD88 block: 2; NOD2-RIPK2 inh: -1; TWEAK-Fn14 inh: 40; SRC3 inh: -49; TRAIL sens C8: 87*; NR5A2 inv ag: -101; COUP-TFII inh: -42; NCOA2 inhibitor: -9

What do the screens show for `CC(=O)Nc1nc(C)c(-c2csc(Nc3ccc(O)cc3)n2)s1`?
NCOA1 inh: -33; TROY NFkB inh: 10; TLR9-MyD88 block: -4; NOD2-RIPK2 inh: -3; TWEAK-Fn14 inh: 0; SRC3 inh: -27; TRAIL sens C8: 25; NR5A2 inv ag: 9

How did O=C(N1CCOCC1)N1CCN(S(=O)(=O)c2ccc(Cl)cc2)C1 do in these assays?
NCOA1 inh: -1; TROY NFkB inh: 3; TLR9-MyD88 block: 5; NOD2-RIPK2 inh: -12; TWEAK-Fn14 inh: 17; SRC3 inh: -3; TRAIL sens C8: 6; NR5A2 inv ag: -2; COUP-TFII inh: -13; NCOA2 inhibitor: 6

What do the screens show for `CN(C1CCCCC1)S(=O)(=O)c1ccc(C(=O)N2CCN(c3nc4ccccc4s3)CC2)cc1`?
NCOA1 inh: 3; TROY NFkB inh: 24; TLR9-MyD88 block: -3; NOD2-RIPK2 inh: -6; TWEAK-Fn14 inh: 20; SRC3 inh: 2; TRAIL sens C8: 24; NR5A2 inv ag: 13; COUP-TFII inh: -18; NCOA2 inhibitor: 6

What do the screens show for `CN1CCc2cccc3c2[C@@H]1Cc1ccc(O)c(O)c1-3`?
NCOA1 inh: -24; TROY NFkB inh: 3; TLR9-MyD88 block: -12; NOD2-RIPK2 inh: 8; TWEAK-Fn14 inh: -7; SRC3 inh: 7; TRAIL sens C8: 9; NR5A2 inv ag: -17

What do the screens show for `COCCn1c(SCCN2CCOCC2)nc2c1c(=O)[nH]c(=O)n2C`?
NCOA1 inh: -1; TROY NFkB inh: 8; TLR9-MyD88 block: -9; NOD2-RIPK2 inh: 6; TWEAK-Fn14 inh: 5; SRC3 inh: 14; TRAIL sens C8: -4; NR5A2 inv ag: 6; COUP-TFII inh: 3; NCOA2 inhibitor: -15

Results for O=C1c2ccccc2C(Nc2cccnc2)N1Cc1ccccc1 (stereo not drawn) ?
NCOA1 inh: -1; TROY NFkB inh: -16; TLR9-MyD88 block: -12; NOD2-RIPK2 inh: -9; TWEAK-Fn14 inh: 2; SRC3 inh: -3; TRAIL sens C8: -10; NR5A2 inv ag: 3; COUP-TFII inh: -4; NCOA2 inhibitor: 1

What do the screens show for `COc1ccc(N2Cc3cccc(C(=O)NC(C)CCc4ccco4)c3C2=O)cc1` (stereo not drawn)?
NCOA1 inh: -18; TROY NFkB inh: -12; TLR9-MyD88 block: 5; NOD2-RIPK2 inh: 3; TWEAK-Fn14 inh: 0; SRC3 inh: -4; TRAIL sens C8: -1; NR5A2 inv ag: 22; COUP-TFII inh: -1; NCOA2 inhibitor: -29

What do the screens show for `Cc1ccc(N(Cc2cc3ccccc3[nH]c2=O)C(=O)c2ccco2)c(C)c1`?
NCOA1 inh: 14; TROY NFkB inh: 24; TLR9-MyD88 block: -2; NOD2-RIPK2 inh: 6; TWEAK-Fn14 inh: 0; SRC3 inh: -9; TRAIL sens C8: 7; NR5A2 inv ag: 3; COUP-TFII inh: 11; NCOA2 inhibitor: 5

What do the screens show for `Cc1cc(C)c(OCCn2ccnc2)c(C)c1`?
NCOA1 inh: -3; TROY NFkB inh: -3; TLR9-MyD88 block: -13; NOD2-RIPK2 inh: -1; TWEAK-Fn14 inh: 11; SRC3 inh: -18; TRAIL sens C8: -14; NR5A2 inv ag: 9; COUP-TFII inh: 19; NCOA2 inhibitor: 11

What do the screens show for `CCOc1ccc(NC(=O)c2cnsn2)cc1`?
NCOA1 inh: -81; TROY NFkB inh: 35; TLR9-MyD88 block: 10; NOD2-RIPK2 inh: 7; TWEAK-Fn14 inh: 57*; SRC3 inh: -50; TRAIL sens C8: 29; NR5A2 inv ag: -112; COUP-TFII inh: -44; NCOA2 inhibitor: -12

How did CCCc1cc(=O)c2c(O)ccc(OC)c2o1 do in these assays?
NCOA1 inh: -19; TROY NFkB inh: 16; TLR9-MyD88 block: 1; NOD2-RIPK2 inh: -9; TWEAK-Fn14 inh: 10; SRC3 inh: 27; TRAIL sens C8: -12; NR5A2 inv ag: 10; COUP-TFII inh: 7; NCOA2 inhibitor: 11

Results for Oc1cccc(/C=N/NC(=S)NCCN2CCOCC2)c1O ?
NCOA1 inh: -66; TROY NFkB inh: 12; TLR9-MyD88 block: 7; NOD2-RIPK2 inh: 4; TWEAK-Fn14 inh: -26; SRC3 inh: -21; TRAIL sens C8: 3; NR5A2 inv ag: -19; COUP-TFII inh: -26; NCOA2 inhibitor: 7

Some of these compounds in order of length of the SMILES, low to high:
What do the screens show for `COCCn1c(SCCN2CCOCC2)nc2c1c(=O)[nH]c(=O)n2C`?
NCOA1 inh: -1; TROY NFkB inh: 8; TLR9-MyD88 block: -9; NOD2-RIPK2 inh: 6; TWEAK-Fn14 inh: 5; SRC3 inh: 14; TRAIL sens C8: -4; NR5A2 inv ag: 6; COUP-TFII inh: 3; NCOA2 inhibitor: -15

What do the screens show for `O=C(O)c1cc(/C=C/c2ccc(N3CCOCC3)cc2)nc2ccccc12`?
NCOA1 inh: -61; TROY NFkB inh: 9; TLR9-MyD88 block: 2; NOD2-RIPK2 inh: -1; TWEAK-Fn14 inh: 40; SRC3 inh: -49; TRAIL sens C8: 87*; NR5A2 inv ag: -101; COUP-TFII inh: -42; NCOA2 inhibitor: -9

Results for N#CC1=C(N)OC2=C(C(=O)CCC2)C12C(=O)N1CCCc3cccc2c31 (stereo not drawn) ?
NCOA1 inh: -2; TROY NFkB inh: -1; TLR9-MyD88 block: -4; NOD2-RIPK2 inh: -3; TWEAK-Fn14 inh: -1; SRC3 inh: 16; TRAIL sens C8: -8; NR5A2 inv ag: 11; COUP-TFII inh: -1; NCOA2 inhibitor: -5

What do the screens show for `CC(=O)O[C@]1(C(C)=O)CC[C@H]2[C@@H]3C=C(C)C4=CC(=O)CC[C@@H]4[C@H]3CC[C@@]21C`?
NCOA1 inh: 12; TROY NFkB inh: -2; TLR9-MyD88 block: -5; NOD2-RIPK2 inh: 9; TWEAK-Fn14 inh: -11; SRC3 inh: -16; TRAIL sens C8: 4; NR5A2 inv ag: 18; COUP-TFII inh: 2; NCOA2 inhibitor: -10

The list is partial. The share of hits here may be higher or lower than overall.
